AID923 = qHTS Assay for Allosteric/Competitive Inhibitors of Caspase-1: Spectroscopic Profiling in AFC Spectral Region; compound fluorescence, AFC spectral region (405/520 nm); almost no hit is shown here; Potency, µM (highest dose often 57.5 µM), for inactives: at the highest dose fluorescence increase, usual class: activators; actives 1.1% (n = 75,000); active = well fitted activation curve with a large enough effect; inconclusive = small, poorly fitted or top-dose-only effect;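 note: potency is the fitted concentration of half-maximal effect; 0% is about no effect; scaled to a free AFC standard on each plate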
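Titrations up to 57 uM read every 20 sec for 3 min (405/520 nm) with 50 nM caspase 1 and 5 uM Ac-WEHD-AFC, pH 7.5 HEPES buffer. Fluorescence-vs-time intercept gave baseline, scaled against on-plate AFC standard.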
Resorufin autofl = qHTS Assay for Spectroscopic Profiling in Resorufin Spectral Region | max dye-equivalent concentration, M | AID 588, 2007 | actives 0.04% (n = 59,000) | Compound fluorescence, resorufin region 547/598 nm, buffer; hits give high values; active = above 10 nM dye equivalent; inconclusive = 1 to 10 nM; inactive = 1 nM or less; a few of its hits are not listed in these tables; note: highest value over a series up to 38 µM
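Compounds in 100 mM Tris, pH 8.0, incubated 15 min at room temperature, then fluorescence read at 547 nm excitation/598 nm emission. Signal converted to dye-equivalent concentration via an on-plate six-point resorufin standard curve, per compound concentration.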
TSHR ag = qHTS Assay for Agonists of the Thyroid Stimulating Hormone Receptor | Thyrotropin receptor (Homo sapiens), P16473 | HEK293-CNG-TSHR cells (CNG channel as cAMP sensor), membrane potential dye, cAMP | Potency, µM (titrated, usually from 57.1 µM), inactives show top-dose activation, actives largely listed as activators | actives 0.48% (n = 73,000) | AID 926, 2007; active = well fitted activation curve of enough size with the parental cells flat; inconclusive = any curve in the parental cells; inactive = parental cells flat and receptor cells flat or falling; note: potency is the fitted concentration of half-maximal effect; % of control where 0% means no effect; weak receptor curves with flat parental cells got no call and are not listed
Target sequence (P16473 whole entry, looked up): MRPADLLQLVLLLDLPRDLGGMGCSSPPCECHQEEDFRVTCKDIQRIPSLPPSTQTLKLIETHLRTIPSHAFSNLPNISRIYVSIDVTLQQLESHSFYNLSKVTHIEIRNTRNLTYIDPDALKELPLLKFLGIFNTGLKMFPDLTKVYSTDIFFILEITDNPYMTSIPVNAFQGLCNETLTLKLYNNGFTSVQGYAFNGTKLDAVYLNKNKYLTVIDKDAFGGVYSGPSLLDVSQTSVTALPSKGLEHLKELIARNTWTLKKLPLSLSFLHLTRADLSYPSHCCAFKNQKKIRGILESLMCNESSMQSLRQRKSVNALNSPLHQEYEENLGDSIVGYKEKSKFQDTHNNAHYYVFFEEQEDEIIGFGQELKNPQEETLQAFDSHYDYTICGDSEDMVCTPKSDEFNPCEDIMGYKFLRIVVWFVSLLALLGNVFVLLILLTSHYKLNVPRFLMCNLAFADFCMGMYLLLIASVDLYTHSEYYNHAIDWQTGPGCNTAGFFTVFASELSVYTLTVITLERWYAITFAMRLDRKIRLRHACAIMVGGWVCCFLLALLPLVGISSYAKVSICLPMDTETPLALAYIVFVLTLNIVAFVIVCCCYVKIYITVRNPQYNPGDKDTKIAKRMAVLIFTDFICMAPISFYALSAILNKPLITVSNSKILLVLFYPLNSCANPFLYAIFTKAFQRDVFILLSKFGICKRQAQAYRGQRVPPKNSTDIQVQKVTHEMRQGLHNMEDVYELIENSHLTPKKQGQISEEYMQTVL
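HEK 293 cells stably expressing TSHR and a modified CNG channel, with CNG-only parental cells as counterscreen, were preloaded 60 min at room temperature with membrane potential dye containing 100 uM RO 20-1724. Compound exposure was 30 min, and depolarization was read as fluorescence at 590 nm.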
A647 autofl = qHTS Assay for Spectroscopic Profiling in A647 Spectral Region; Compound fluorescence, A647 channel (570/671 nm), Tris buffer; AID 592, 2007; 59,000 tested, under 10 active; max dye-equivalent concentration, M; active means above 1 µM dye equivalent; inconclusive means 0.1 to 1 µM; inactive means 0.1 µM or less;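 note: values scaled relative to a standard on each plate; highest value over a series up to 38 µM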
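Buffer was dispensed, compounds and Alexa 647 standards were pin-transferred, and plates sat 15 min at room temperature. Intensity at 570/671 nm was then converted to dye-equivalent concentration using the plate's A647 standard curve.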
A488 autofl = qHTS Assay for Spectroscopic Profiling in A488 Spectral Region; compound autofluorescence, A488 spectral region, dye equivalency; hits give high values; max dye equivalency, M; actives 0.1% (n = 59,000); active = above 10 nM dye equivalent; inconclusive = 1 to 10 nM; inactive = 1 nM or less; about half of its hits are not listed in these tables;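 note: highest value over a series up to 38 µM; compound alone in buffer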
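Readout is A488 dye-equivalent concentration, calibrated by a per-plate six-point Alexa 488 series. Compounds in 100 mM Tris buffer pH 8.0 were incubated 15 min at room temperature. Plates were imaged using 480 nm excitation/540 nm emission filters.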
* hit, by the source's call; i = inactive; u = inconclusive; x = not tested or not shown; & = joins results of further samples; [ ] = dose if it differs, or a comment. This is a subset; count on the stated rates, not on these rows.

Values run as follows: AID923, Resorufin autofl, TSHR ag, A647 autofl, A488 autofl
- CCOC(=O)CNc1ncnc2nc[nH]c12
 : 3.1%, x, u, x, x
- CCOC(=O)c1nnn(-c2nonc2N)c1-c1cccc2ccccc12
 : -1.9%, i, 2%[11.4 µM], 3.4e-08, i
- Cc1ccc(N(CC(=O)Nc2ccc3c(c2)OCCO3)S(=O)(=O)c2c(C)noc2C)cc1
 : 1.1%, i, 17%, 2e-08, i
- CC12C=C(/C=C/C=C/c3ccco3)C(C)(C1)C(/C=C/c1ccco1)CC2=O (centres undefined)
 : -3.0%[11.5 µM], x, -12%[11.4 µM], x, x
- O=C(c1ccccc1)c1ccc(C(=O)N2CCOCC2)cc1
 : -0.6%, x, -5%[11.4 µM], x, x
- CCCC(=O)c1ccc(N2CCN(S(=O)(=O)c3ccccc3)CC2)c(F)c1
 : 3.1%, x, 8%, x, x
- COCc1cc(C)nc(SCC(=O)Nc2ccccc2C)c1C#N
 : 1.1%, i, -1%, 9.9e-09, i
- NC(=O)CCCCC(N)=O
 : -1.1%, x, 1%, x, x
- Nc1cc(N)nc(SCCOc2ccccc2)n1
 : 4.9%, x, -3%, x, x
- CCC(OC(=O)c1cc2sccc2n1C)C(=O)NCC1CCCO1 (centres undefined)
 : -0.4%, i, -4%, 1e-09, i
- Nc1cc(Cl)c(N)c(Cl)c1
 : -0.1%, x, u, x, x
- CN(C)CC/C=C1\c2ccccc2COc2ccccc21
 : -0.9%, i, u, 2.6e-09&2.7e-08, i
- O=C(CCS(=O)(=O)c1ccc(Cl)cc1)N1CCN(S(=O)(=O)c2cccs2)CC1
 : 1.3%, i, u, 1e-09, i
- CCOC(=O)CC1=C(C(=O)OCC)C(c2ccc(OC)cc2OC)C(C#N)=C(N)O1 (centres undefined)
 : -0.6%, x, 8%, x, x
- Cc1c(Cl)cccc1N1C(=O)C2ON(c3ccccc3)C(c3cccnc3)C2C1=O (centres undefined)
 : x, i, x, 1e-09, i

For convenience, part of the list above.
Values run as follows: AID923, Resorufin autofl, TSHR ag, A647 autofl, A488 autofl
- CCCC(=O)c1ccc(N2CCN(S(=O)(=O)c3ccccc3)CC2)c(F)c1
 : 3.1%, x, 8%, x, x
- COCc1cc(C)nc(SCC(=O)Nc2ccccc2C)c1C#N
 : 1.1%, i, -1%, 9.9e-09, i
- NC(=O)CCCCC(N)=O
 : -1.1%, x, 1%, x, x

More records:
Values run as follows: AID923, Resorufin autofl, TSHR ag, A647 autofl, A488 autofl
- COc1ccccc1-c1cc(=O)c2cc(O)ccc2o1
 : -0.6%, i, u, 1e-09, i
- N#Cc1ccccc1NC(=O)COC(=O)c1ccc2c(c1)OCCO2
 : 0.0%, i, 29%, 1.2e-09, i
- Cc1ccc(-c2cc(C(=O)N3CCN(c4ncccn4)CC3)c3ccccc3n2)cc1
 : -1.3%, i, u, 4.4e-08, i
- O=C(NCc1cccc(C(F)(F)F)c1)C1CCN(c2ncccn2)CC1
 : -0.1%, i, 2%, 1.4e-08, i
- Cc1ccc(S(=O)(=O)NCc2ccc(C(=O)N3CCN(c4ccccn4)CC3)cc2)cc1
 : 0.3%, i, u, 1.2e-08, i
- O=C(Nc1ccc2oc(-c3ccncc3)nc2c1)c1c(F)c(F)c(F)c(F)c1F
 : -2.7%, i, x, 3e-08, i
- COc1ccccc1CC(=O)N(CCC#N)CCC#N
 : -0.6%, i, x, 1e-09, i
- CC1=C(C)C(=O)NC(Nc2nc(C)c3cc(C)cc(C)c3n2)N1 (centres undefined)
 : 1.6%, i, 5%, 1.7e-08, i
- C(=N\n1cnnc1)/c1ccc(OC2CSC2)cc1
 : 1.2%, x, 10%, x, x
- O=C1CCCC(O)=C1C(C#Cc1ccccc1)C1=C(O)CCCC1=O
 : 1.5%, i, -2%[11.4 µM], 2.7e-08, i
- O=C(C1CCCN1S(=O)(=O)c1cccc2cccnc12)N1CCc2ccccc21 (centres undefined)
 : -0.6%, x, 13%, x, x
- Cn1cccc1C(=O)N1CCC[C@@]2(CCN(C(=O)Nc3cccc(C#N)c3)C2)C1
 : 0.3%, i, 3%, 2.7e-09, i
- CCOc1cc(S(=O)(=O)NCc2ccco2)c(OCC)cc1-n1cnnn1
 : -1.4%, i, 5%, 9.9e-09, i
- O=C(CN1CCN(c2nc(-c3ccccc3)cs2)CC1)Nc1ccc2c(c1)OCO2
 : -0.1%, i, u, 1e-09, i
- CN1CCN(C(=O)c2cccc(S(=O)(=O)N3CCCCC3)c2)CC1
 : 0.9%, i, 15%, 2.9e-08, i
- CCOC(=O)C1CCCN(Cc2cccc(Cl)c2)C1 (centres undefined)
 : -2.1%, i, 2%, 2.3e-08, i
- O=C(CC(c1ccccc1)c1cc(Br)ccc1O)NCc1ccco1 (centres undefined)
 : 1.1%, i, 9%, 6.7e-08, i
- COc1ccccc1C(=O)NCc1ccc2c(c1)OCO2
 : 1.7%, x, 19%, x, x
- C=C(CO)[C@H]1Cc2c(ccc3c2O[C@H]2COc4cc(OC)c(OC)cc4[C@@H]2C3=O)O1
 : x, i, 21%, 1.5e-08, i
- COc1ccc(C(=O)Nn2c(C3CCC3)nc3ccccc3c2=O)c(OC)c1
 : -2.8%, i, 5%, 1e-09, i
- O=C(COc1ccc(Cl)cc1Cl)NC1CCSC1=O (centres undefined)
 : 0.5%, i, -5%[11.4 µM], 2e-08, i
- CCC(=O)Nc1cccc(-c2nnc(SCC(=O)c3ccccc3)n2C)c1
 : 1.4%, x, -10%, x, x
- CCN(CC)[C@@H](C)CN1c2ccccc2Sc2ccccc21
 : -2.3%[25.7 µM], i, -9%[25.6 µM], 4.5e-08, i
- COc1ccc(CCNc2c(N)n(Cc3ccccc3)c(=O)[nH]c2=O)cc1OC
 : 8.0%, i, -2%, 2.4e-08, i
- CCCc1nc(SCC(=O)NCc2ccco2)c2c(=O)n(C)c(=O)n(C)c2n1
 : 0.3%, x, 2%, x, x
- Cc1cc(Cl)cc(Br)c1OCCNCC(C)O (centres undefined)
 : 1.7%, i, 7%, 2.5e-09, i
- COc1ccc(OC)c(N=C2C(=O)Nc3ccccc32)c1
 : 2.8%, x, 8%, x, x
- COc1nc(OC/C(N)=N/O)nc(N2CCOCC2)n1
 : 0.9%, i, -3%, 1e-09, i
- COc1cc(C)nc(NS(=O)(=O)c2ccc(C)cc2)n1
 : -0.1%, i, 26%, 4e-08, i
- CN1c2ccccc2-c2nc3ccccc3n2C1c1ccncc1 (centres undefined)
 : 13%, i, u, 1e-09, i
- COc1ccc(OCC(=O)Nc2cc(-c3nn4c(C)nnc4s3)ccc2C)cc1
 : 3.2%, x, u, x, x
- CN(Cc1ccc(OC(F)F)cc1)C(=O)c1ccc2nccnc2c1
 : 1.1%, i, 5%, 8.6e-09, i
- Cc1ccc2c(c1)N(CCC(=O)NCCCOC(C)C)C(=O)C(C)O2 (centres undefined)
 : -1.2%, i, 10%, 1e-09, i
- CCOC(=O)c1c(C)[nH]c(C(=O)Cn2c(=O)oc3ccccc32)c1C
 : -0.9%, i, 1%, 1e-09, i
- CS(=O)(=O)N1CCC(C(=O)Nc2cc(C(F)(F)F)ccc2Cl)CC1
 : 0.3%, i, 17%, 1e-09, i
- Cc1cc(NCCN2CCOCC2)n2ncc(-c3ccc(Cl)cc3)c2n1
 : -0.1%, i, -1%, 1.6e-09, i
- COc1ccc(-c2ccc(-c3nnc(Cc4ccc(OC)c(OC)c4)o3)cc2)cc1
 : -0.8%, i, x, 1.1e-09, i
- CC(=O)N1CCC2(CC1)CN(c1ccccn1)C2
 : -5.8%, i, u, 1.3e-08, i
- COc1cccc(-c2nn(-c3ccccc3)cc2C(=O)NCC(=O)O)c1
 : -1.2%, i, -3%, 1.3e-08, i
- Cc1cccc(-n2c(O)c(C=Nc3ccccc3N)c(=O)[nH]c2=O)c1
 : 0.2%, x, 4%, x, x
- Nc1c(C(=O)NCc2cccnc2)sc(=S)n1-c1ccccc1
 : -0.7%, x, u, x, x
- Cc1nc2cc(NC(=O)NCc3ccc4c(c3)OCO4)ccc2o1
 : -1.3%, i, 14%, 3.8e-09, i
- CCOC(=O)c1ccc(NC(=O)NS(=O)(=O)c2ccc(C)cc2)cc1
 : 1.3%, x, 4%, x, x
- O=C(NCC1COCCO1)C1CCN(S(=O)(=O)c2ccccc2)CC1 (centres undefined)
 : 1.0%, i, 3%, 1.8e-08, i
- CC(C)c1nc2sc3c(SCC(=O)NCc4ccco4)ncnc3c2c2c1CCC2
 : 0.3%, i, 13%, 1e-09, i
- CNc1nc2c(c(=O)[nH]c(=O)n2C)n1CCOC
 : -0.1%, i, 19%, 2.6e-08, i
- CCOC(=O)Cn1cc(C(=O)C2CC2)c2ccccc21
 : -4.7%, i, 2%, 1.3e-08, i
- CCOCCCNC(=O)CN(Cc1ccc(Cl)cc1)S(C)(=O)=O
 : -0.1%, i, -3%, 1.5e-08, i
- Cc1cc2c(cc(C(=O)NCc3cccnc3)n2Cc2ccc(Cl)cc2)o1
 : 0.5%, x, 5%, x, x
- CC(=O)O[C@H]1CC[C@@]2(C)[C@@H](CC[C@@]3(C)[C@H]2C(=O)C=C2[C@H]4C[C@](C)(C(=O)OCCN5CCCCC5)CC[C@]4(C)CC[C@@]23C)C1(C)C
 : x, i, -4%, 2.1e-09, i
- O=C(Nc1ccc(OC(F)(F)F)cc1)C1CCCN(S(=O)(=O)c2cccnc2)C1 (centres undefined)
 : 0.6%, i, -2%, 1e-09, i
- Oc1cc(Cc2ccccc2)cnc1CN1CCOCC1
 : 0.1%, x, -14%, x, x
- Cc1cc(=O)[nH]c(SCC(=O)C23CC4CC(CC(C4)C2)C3)c1C#N
 : -1.3%, i, 14%, 2.9e-08, i
- Cn1cnnc1SCC(=O)Nc1sc2c(c1C#N)CCCCC2
 : -1.1%, i, -2%[11.4 µM], 1e-09, i
- CCOC(=O)c1c(C)[nH]c(C(=O)CSc2ccccc2)c1C
 : -0.6%, i, 9%, 2.7e-08, i
- CC(=O)N[C@H](Cc1c[nH]c2ccccc12)C(=O)O
 : -2.3%[11.5 µM], i, 27%[11.4 µM], 2.7e-08, i
- Oc1ccc(-c2onc(C(F)(F)F)c2-c2cscn2)c(O)c1
 : -1.3%, i, 2%, 1.7e-08, i
- CCc1ccc(NS(=O)(=O)c2cccs2)cc1
 : -0.4%, i, 14%, 6.3e-09, i
- O=C1c2ccccc2C(=O)N1c1ncccn1
 : x, i, x, 8.2e-08, i
- Cc1ccc(S(=O)(=O)N[C@H]2COC(=O)C/C=C\[C@@H](C)[C@H](NS(=O)(=O)c3ccc(C)cc3)COC(=O)[C@H](C)NC(=O)C/C=C\[C@H]2C)cc1
 : 2.4%[11.5 µM], x, u, x, x

(further entries)
Values run as follows: AID923, Resorufin autofl, TSHR ag, A647 autofl, A488 autofl
- COc1ccc(N2C(=O)CC(Sc3nccc(C)n3)C2=O)cc1 (centres undefined)
 : -0.4%, x, 5%, x, x
- CC1CN(C(=O)CN2C(=O)c3ccccc3C2=O)CC(C)O1 (centres undefined)
 : 0.2%, i, -10%, 2.3e-09, i
- Nc1c(S(=O)(=O)c2ccccc2)c2nc3ccccc3nc2n1/N=C/c1ccco1
 : 15%, x, 0%, x, x
- COc1cccc(CNc2nc3nc(C)c(Cl)c(C)n3n2)c1
 : -2.6%, i, 19%, 1.7e-08, i
- CC(C)C(=O)N1CCN(CCN=CC2=C(O)CC(c3ccco3)CC2=O)CC1 (centres undefined)
 : 0.8%, i, 1%, 3.6e-08, i
- O=C(O)c1cccc(N2CCCC2=O)c1
 : -0.3%, i, -3%, 2.2e-09, i
- COc1ccc(C(=O)n2nc(-c3ccccc3)nc2N)cc1OC
 : 0.9%, i, 26%, 1e-09, i
- COc1nc(Nc2ccc(-c3nc4ccccc4o3)cc2)nc(N2CCOCC2)n1
 : -0.2%, i, 28%, 1e-09, i
